StopGo reporter – lowers the luciferase signal of an FMDV 2A StopGo reporter. human cells with a luciferase reporter of 2A StopGo recoding; control for the full effect not named in the record. Potency, µM (titrated, usually from 57.9 µM), for the others: top-dose signal change, negative = less light. 410,000 compounds, 1.2% hits; active = well fitted falling curve with a large enough effect; inconclusive = small, poorly fitted or top-dose-only effect; inactive = no such curve, though single readings can be large or run the other way; tested in HEK293T cells; further: on the % scale 0 is the no-effect control and ±100 the full control effect; nearly all actives have a fitted effect of over 45% in size; luciferase light after 4 h
Marburg entry inh – inhibitors of Marburg virus binding or cell entry; Marburg virus pseudotyped entry inhibition, cell reporter; control for the full effect not named in the record; about a third of the inactives were read at about 46 µM; Potency, µM (highest dose often 37.8 µM), without a hit: top-dose activity change, negative = inhibition, actives largely listed as inhibitors; 300,000 compounds, 1.8% hits; active = well fitted inhibition curve with a large enough effect; inconclusive = small, poorly fitted or top-dose-only effect, or effect the other way; inactive = flat fitted curve, though single readings scatter; tested in HEK293 cells; about a fifth of its hits are not listed in these tables; further: on the % scale 0 is the no-effect control and ±100 the full control effect; luciferase read-out
Cruzain inh Det – inhibitors of Trypanosoma cruzi cruzain with detergent | purified cruzain, Z-FR-AMC fluorescence, 0.01% Triton | Potency, µM, without a hit: max response, negative = inhibition, hits mostly inhibitors | 200,000 compounds, 0.43% hits; active means well fitted curve in the direction sought with a large enough effect; inconclusive means small, poorly fitted or top-dose-only effect, or another doubt; inactive means no such curve, though single readings can be large; an effect the other way counts as inactive or inconclusive;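 further: plate controls were neutral wells for no effect and buffer without enzyme for full effect; nearly all actives have a fitted effect of over 40% in size; top concentration of the series not given in the record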
Target sequence (P25779 123-467 limits assumed): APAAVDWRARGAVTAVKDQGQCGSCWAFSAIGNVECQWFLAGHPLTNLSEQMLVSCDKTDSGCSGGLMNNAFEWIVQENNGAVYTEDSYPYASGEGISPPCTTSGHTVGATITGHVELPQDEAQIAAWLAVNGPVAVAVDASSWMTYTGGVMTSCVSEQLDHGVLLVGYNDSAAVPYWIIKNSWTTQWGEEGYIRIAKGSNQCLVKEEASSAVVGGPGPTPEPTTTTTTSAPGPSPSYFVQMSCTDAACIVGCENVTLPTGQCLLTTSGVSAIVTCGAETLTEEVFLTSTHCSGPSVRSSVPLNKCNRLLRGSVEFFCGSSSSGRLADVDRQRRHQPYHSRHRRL
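Cysteine protease activity tested under reducing, mildly acidic conditions (100 mM sodium acetate pH 5.5, 5 mM DTT) plus 0.01% Triton X-100. Cruzain 1.5 nM; substrate Z-FR-AMC 2 uM; 15 min compound preincubation at room temperature.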
Lassa entry inh – blocks Lassa virus binding to or entry into cells. Lassa virus pseudotype entry inhibition, cell reporter; control for the full effect not named in the record. Potency, µM (highest dose often 37.9 µM), for inactives: top-dose activity change, negative = inhibition, most hits filed as inhibitors. 300,000 compounds, 1.2% hits. AID 540256; active means well fitted inhibition curve with a large enough effect; inconclusive means small, poorly fitted or top-dose-only effect, or effect the other way; inactive means flat fitted curve, though single readings scatter; tested in HEK293 cells; further: on the % scale 0 is the no-effect control and ±100 the full control effect; nearly all actives have a fitted effect of over 50% in size; luciferase read-out
NS1 function inh – blocks influenza NS1 protein function | Potency, µM (titrated, usually from 46.1 µM), without a hit: top-dose activity, positive = more growth | S. cerevisiae slowed by influenza A NS1, growth recovery by OD600 | 270,000 compounds, 0.4% hits | AID 2326; further: actives are rising curves; nearly all actives have a fitted effect of over 50% in size
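Growth recovery, yeast-based: influenza A NS1 expressed in S. cerevisiae causes slow growth, and suppressors are detected by OD600. The parent strain without NS1 is used as positive control.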
SARS PLP yeast – blocks SARS-CoV papain-like protease in a yeast assay; 330,000 compounds, 0.19% hits; S. cerevisiae expressing SARS-CoV PLpro, growth rescue; control for the full effect not named in the record; Potency, µM (top dose mostly 32.9 µM), inactives show at the top dose activity, positive = growth rescue; further: 0% is about no effect; nearly all actives have a fitted effect of over 55% in size; growth read by luminescence after 48 h
Cruzain noTriton – inhibitors of Trypanosoma cruzi cruzain without detergent. P25779. purified cruzain, Z-FR-AMC fluorescence, no detergent. Potency, µM, without a hit: max response, negative = inhibition, actives largely listed as inhibitors. 200,000 compounds, 2.3% hits. AID 1476; active means well fitted curve in the direction sought with a large enough effect; inconclusive means small, poorly fitted or top-dose-only effect, or another doubt; inactive means no such curve, though single readings can be large; an effect the other way counts as inactive or inconclusive;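 further: plate controls were enzyme without inhibitor for no effect and buffer without enzyme for full effect; nearly all actives have a fitted effect of over 40% in size; top concentration of the series not given in the record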
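Detergent-free condition (0.00005% Triton X-100) in acetate buffer pH 5.5 with DTT. 1.5 nM enzyme and compound were pre-mixed 15 min, then 2 uM Z-FR-AMC substrate added; reaction progress from fluorescence change between first and third reads (60 s).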
RE007 growth inh – less growth of the S. pombe RE007 Vpr strain | Potency, µM (titrated, usually from 92.2 µM), inactives show at the top dose activity change, negative = less growth | S. pombe RE007 Vpr strain, BacTiter-Glo ATP luminescence, 24 h; control for the full effect not named in the record | 360,000 compounds, 0.21% hits | AID 651644; active = well fitted falling curve with a large enough effect; inconclusive = small, poorly fitted or top-dose-only effect; inactive = no such curve, though single readings can be large or run the other way;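 further: on the % scale 0 is the no-effect control and ±100 the full control effect; nearly all actives have a fitted effect of over 50% in size; the assay follows cell death caused by Vpr and the record does not say whether a fall means rescue or toxicity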
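Fission yeast RE007 carrying one integrated HIV-1 vpr copy, seeded at OD 0.01 in PMG+AL medium with 23 nL pinned compound. Grown 24 h at 30 degrees; viability read by BacTiter-Glo luminescence after 5 min.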
* marks the source's active call; other numbers are inactive results; u = inconclusive; x = not tested or not shown; [ ] = another dose, or the depositor's remark. Unless noted, the call rests on the fitted dose curve; in most records, active means well fitted rising curve with a large enough effect; inconclusive means small, poorly fitted or top-dose-only effect; inactive means no such curve, though single readings can be large or run the other way. Potency means the concentration at half of the fitted maximal effect.

SMILES | StopGo reporter | Marburg entry inh | Cruzain inh Det | Lassa entry inh | NS1 function inh | SARS PLP yeast | Cruzain noTriton | RE007 growth inh
O=C(O)CC(NC(=O)CCc1ccccc1)c1ccc(Cl)cc1 (stereo not given) | -11% | x | x | x | 2% | -1% | x | -15%
Cc1ccccc1N1CCN(C(=S)c2ccc(-c3cccc([N+](=O)[O-])c3)o2)CC1 | 1% | -14% | x | 1% | x | 0% | x | 0%
CCOC(=O)Nc1ccc2c(c1)N(CCCN(C)C)c1ccccc1CC2 | -15% | x | x | x | -14% | -16% | x | 0%
CCOCCCNC(=O)CCNS(=O)(=O)c1ccc(C)cc1 | -9% | -1% | 3.0% | 4% | 7% | 0% | -6% | 1%
CC[n+]1ccccc1/C=C1\Sc2ccc(C)cc2N1C | u | x | x | x | -42% | -3% | x | u
CSCCC(NS(=O)(=O)c1ccc2c(c1)oc(=O)n2C)C(=O)NCc1cccs1 (stereo not given) | 3% | u | x | -16% | -1% | 0% | x | 4%
C[C@@H]1C=CC(=O)O[C@@H]1c1ccc(Cl)cc1 | 28µM* | x | x | x | -38% | -11% | x | -29%
CCOC(=O)COc1ccc2c(c1)C(=O)CC(C)(C)O2 | 18% | -6% | -2.0% | -1% | -32% | -11% | 17% | -9%
O=C(N/N=C/C=C/c1ccc(Br)cc1)C(O)c1ccccc1 (stereo not given) | -19% | 0% | 0.0% | -1% | 3% | 9% | u | -1%
Cc1onc(-c2ccccc2Cl)c1C(=O)Oc1cc(F)cc(F)c1 | -15% | x | -2.4% | -27%[46.1 µM] | x | x | -16% | x
COc1ccc(CNC(=O)C(C)n2nc(C)c3c(C)n(-c4ccc(C)cc4)nc3c2=O)cc1 (stereo not given) | u | -24%[46.1 µM] | x | -22%[46.1 µM] | -2% | -3% | x | -3%
O=C(N/N=C/c1ccccn1)c1cc(-c2ccc(Br)s2)[nH]n1 | -26% | u | x | x | 14% | 4% | x | 12%
Cc1sc2ncnc(Nc3ccccc3)c2c1C | -5% | -17% | -1.2% | -2% | -11% | -1% | -6% | u
Cc1nn(-c2ccccc2)c(C)c1C(=O)OCC(=O)NC(=O)NC1CCCCC1 | -3% | u | -5.5% | -23% | -51% | -13% | 14% | -11%
CCCC(=O)Nc1nc2nc(-c3ccccc3)cc(-c3ccccc3)n2n1 | 5% | 2%[46.1 µM] | -11% | 3% | 20% | -5% | -6% | 13%
Cc1cc(NC(=O)CSc2nnc(C)n2C)no1 | 0% | 12%[46.1 µM] | x | 19%[46.1 µM] | 5% | 0% | x | 0%
Cc1ccc(NC(=O)N2CCN(C(=O)c3ccco3)CC2)cc1Cl | -1% | 0% | x | 0% | -3% | -6% | x | -2%
CC(=O)Nc1ccc(S(=O)(=O)N(CC(=O)O)Cc2ccccc2)cc1 | -22% | 10% | 2.6% | -3% | u | x | 7% | 17%
CCOC(=O)N1CCN(CC(=O)Nc2nnc(C(F)(F)F)s2)CC1 | -14% | x | x | x | u | -2% | x | 0%
CCc1cc(=O)oc2cc(C)cc(OCC(=O)NCCc3c[nH]c4ccccc34)c12 | u | x | x | x | -19% | -5% | x | 1%
CCc1nc(NCC2CCCO2)c2oc3ccccc3c2n1 (stereo not given) | 0% | 2% | -3.4% | 6% | -38% | 3% | 2% | -3%
Cc1cc(C)c(C#N)c(SCC(O)CS(=O)(=O)Cc2ccccc2)n1 (stereo not given) | x | u | 5.3% | 19% | u | -1% | 5% | -1%
CCn1c(=O)cc(OCC(=O)NCc2ccco2)c2ccccc21 | -14% | 6% | -7.9% | 4% | u | -2% | -2% | 8%
O=C(/C=C/c1ccccc1)Oc1coc(CSc2ncccn2)cc1=O | -15% | -15%[46.1 µM] | x | -20%[46.1 µM] | x | 0% | x | -11%
CC(=O)c1ccc(NC(=O)C(C)OC(=O)c2ccc(Br)o2)cc1 (stereo not given) | -1% | 1% | x | 0% | x | 5% | x | -7%

As a working copy, part of the list above.
SMILES | StopGo reporter | Marburg entry inh | Cruzain inh Det | Lassa entry inh | NS1 function inh | SARS PLP yeast | Cruzain noTriton | RE007 growth inh
O=C(O)CC(NC(=O)CCc1ccccc1)c1ccc(Cl)cc1 (stereo not given) | -11% | x | x | x | 2% | -1% | x | -15%
Cc1ccccc1N1CCN(C(=S)c2ccc(-c3cccc([N+](=O)[O-])c3)o2)CC1 | 1% | -14% | x | 1% | x | 0% | x | 0%
CCOC(=O)Nc1ccc2c(c1)N(CCCN(C)C)c1ccccc1CC2 | -15% | x | x | x | -14% | -16% | x | 0%
CCOCCCNC(=O)CCNS(=O)(=O)c1ccc(C)cc1 | -9% | -1% | 3.0% | 4% | 7% | 0% | -6% | 1%
CC[n+]1ccccc1/C=C1\Sc2ccc(C)cc2N1C | u | x | x | x | -42% | -3% | x | u
CSCCC(NS(=O)(=O)c1ccc2c(c1)oc(=O)n2C)C(=O)NCc1cccs1 (stereo not given) | 3% | u | x | -16% | -1% | 0% | x | 4%

(next part)
SMILES | StopGo reporter | Marburg entry inh | Cruzain inh Det | Lassa entry inh | NS1 function inh | SARS PLP yeast | Cruzain noTriton | RE007 growth inh
CNC(=O)CSc1nnc(-c2cc(C)cc(C)c2)o1 | 30%[activator] | -4% | 4.8% | u | -8% | -3% | 4% | 4%
COc1ccccc1C(=O)NCCCNC(=O)c1ccccn1 | 19% | 17%[46.1 µM] | x | -1%[46.1 µM] | 2% | 0% | x | 6%
CCCCC/C=C\C[C@H](O)/C=C/c1cccc(C[C@H](O)CCCCO)n1 | -16% | -11% | -14% | 0% | -5% | 5% | u | -16%[18.4 µM]
COc1ccc(OC)c(C(c2nnnn2Cc2ccccc2)N2CCN(C3CCCCC3)CC2)c1 (stereo not given) | 5% | u | 4.3% | -17% | -8% | 3% | -11% | 19%
Cn1nc([N+](=O)[O-])nc1Oc1ccccc1N | 23% | 7% | 2.0% | 0% | -31% | -18% | 12% | 12%[3.69 µM]
N#Cc1c2nc3ccccc3nc2n2cc(NC(=O)c3ccc(F)cc3)ccc12 | -27% | u | -8.0% | 3% | 16% | -16% | 11% | -6%
c1ccc(-c2ccccc2OCCOCCN2CCNCC2)cc1 | -18% | u | x | 14% | 1% | 0% | x | 22%
CC(C)(C)c1nnc2cccc(Cl)n12 | 11% | -5% | x | 2% | -8% | -1% | x | -16%
COc1ccccc1/C=C/C=N/NC(=O)c1cccs1 | 20% | u | x | u | -31% | -2% | x | u
CCOc1cc(CNS(=O)(=O)c2ccc3c(c2)C(C)(C)C(=O)N3)cc(OCC)c1OCC | 1% | x | -3.1% | 8%[46.1 µM] | x | x | 7% | x
CS(=O)(=O)Oc1ccccc1/C=C1/N=C(c2ccc(F)cc2)OC1=O | -21% | 23% | 14µM* | 2% | 8% | 8% | 16µM* | 1%
COc1ccc(NC(=O)CSc2nc3c(c(-c4cccs4)c2C#N)CN(C)CC3)cc1OC | x | 6% | -8.3% | 0% | 23% | 3% | -10% | 14%
O=C(NC1CCCCC1)C1CC(=O)N(CCc2ccc(F)cc2)C1 (stereo not given) | 3% | 1%[46.1 µM] | x | u | -3% | -2% | x | -12%
O=C(c1ccco1)N1CCN(c2cc(N3CCOCC3)c(F)cc2[N+](=O)[O-])CC1 | -13% | -14%[46.1 µM] | x | u | -3% | -1% | x | -7%
c1ccc2c(-c3nc4ncccc4o3)cccc2c1 | 42%[activator] | 1% | 10.0% | 8% | -81% | -12% | 27% | u
CCN(C(=O)COC(=O)c1cnccn1)c1cccc2ccccc12 | -4% | u | x | 15%[46.1 µM] | x | 5% | x | -20%
Cc1ccccc1OCc1nnc(SCC(=O)O)n1-c1ccccc1 | 2% | x | x | x | 4% | -1% | x | 1%
COc1ccc(-c2nc(SCC(=O)c3ccc(Br)cc3)n[nH]2)cc1 | -22% | -10%[46.1 µM] | -0.5% | x | x | x | u | x
C#C[C@@]1(O)CCC2C3CCC4=C/C(=N/OCC(=O)NC(C(=O)NC(CC(C)C)C(=O)O)C(C)C)CC[C@]4(C)C3CC[C@@]21C (stereo not given in full) | -2% | x | x | x | 10% | 0% | x | -8%
Cc1ccc(NC(=O)Nc2cc(-c3ccccc3)nn2C)cc1Cl | -3% | x | x | x | 2% | 0% | x | -9%
COc1ccc2nc3ccccc3nc2c1NC(=O)c1ccc(Cl)cc1 | -11% | 8% | -1.8% | 5% | 8% | -21% | 1% | 1%
N#Cc1cc2c(N)c(C(=O)Nc3ccccc3)sc2nc1N | x | 2% | 0.2% | x | 0% | 1% | u | x
Cc1cc(C(=O)CSc2n[nH]c(N)n2)c(C)n1-c1cc(F)ccc1F | 19% | -20% | -1.5% | 0% | 11% | 7% | -20% | 0%
CCOC(=O)C1=C(Nc2ccc(Br)cc2)CC(C)(O)C(C(=O)OCC)C1c1ccccc1 (stereo not given) | -25% | -11% | -1.1% | u | -4% | -1% | -4% | 7%
CCOc1nc(NCc2ccco2)nc(Nc2ccccc2F)n1 | 46%[activator] | u | -1.5% | 10% | 3% | -10% | -8% | 2%
CN(C)c1ccc(N=Nc2ccc(C(=O)O)cc2)cc1 | 11µM* | 2.8µM* | x | 7.1µM* | 7% | 1% | x | 7%
CCN(CC)c1ccc(NC(=O)C2CCN(S(=O)(=O)c3ccc4c(c3)oc(=O)n4C)CC2)c(C)c1 | -19% | 5%[46.1 µM] | -0.5% | -1%[46.1 µM] | x | x | 1% | x
O=C(O/N=C\c1ccc(N2CCOCC2)c([N+](=O)[O-])c1)c1ccc(F)cc1 | -18% | u | 1.0% | 2% | -10% | 2% | u | -18%
O=C(Nc1cccc(O)c1)c1ccc(C(=O)c2ccccc2)o1 | 5% | u | x | -23%[46.1 µM] | 0% | 0% | x | 15%
COc1ccc(CN(CCN)C2CC(C)N(C)CC2C)cc1 (stereo not given) | -2% | u | x | u | 14% | 3% | x | -9%
